Six1-Eya2 blk = blocks human Six1 binding to Eya2 | activity change, % (no concentration beside the values) | 360,000 tested, 0.56% active | AID 651725 | Q15475+O00167 | AlphaScreen GST-Six1/His-Eya2 binding, biochemical; stronger effect = lower value; control for the full effect not named in the record; in the data active = activity change below about -65%; inconclusive = about -30% to -65%; inactive = above about -30%; also: % is scaled to controls: 0 for no effect and ±100 for the full control effect; compound concentration not given in the record
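Homogeneous AlphaScreen proximity assay pairing GST-Six1 with His-tagged Eya2 (added as 5X mix: 250 nM and 500 nM) in 50 mM Tris pH 8.0, 300 mM NaCl, 1 mM TCEP. Glutathione donor and nickel acceptor beads; 1 h, 37 °C, dark.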
D2 agonist = agonists of human D2 dopamine receptor (beta-arrestin); P14416; DiscoveRx PathHunter D2 beta-arrestin, luminescence, 90 min; 100% = 57 uM dopamine signal; activation, % (concentration not given with the values); 360,000 tested, 0.084% active; AID 624465; in the data active = activation above about 40%; inconclusive = about 15% to 40%; inactive = below about 15%; also: compound concentration not given in the record; the text of the record calls up to 30% inactive
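Agonist mode: compounds alone added to overnight-plated D2 PathHunter cells for 90 min at 37 C, with 57 uM final dopamine (EC100) defining full response. Beta-arrestin recruitment detected by chemiluminescent reagent, read after 1 h at ambient temperature.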
Sfp inh = inhibitors of Bacillus subtilis Sfp phosphopantetheinyl transferase; Biochemical Sfp PPTase activity, qHTS; Potency, µM, for inactives: max response, negative = inhibition, hits mostly inhibitors; 310,000 tested, 3.5% active; AID 1490; active = well fitted inhibition curve with a large enough effect; inconclusive = small, poorly fitted or top-dose-only effect, or another doubt; inactive = no such curve, though single readings can be large or run the other way;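 also: the enzyme is Sfp with the accession as filed and its product quenches rhodamine fluorescence; potency is read from the fitted curve at half-maximal effect; 0% = enzyme reaction without inhibitor and -100% = no enzyme wells; top concentration of the series not given in the record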
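After 15 min at room temperature with compound, 15 nM Sfp received 5 uM rhodamine-CoA plus 12.5 uM BHQ-2-ybbR (50 mM Hepes pH 7.6, 10 mM MgCl2). Rate came from the fluorescence difference over 30 min, ex 525/em 598 nm.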
TRPV1 potentiator = enhances activation of the human vanilloid receptor TRPV1; potentiation, % at 8.33 µM; AID 540277; Q8NER1; TRPV1-expressing cells, Fluo-8 calcium influx, capsaicin EC20 potentiation; host cell line not named in the record; control for the full effect not named in the record; 320,000 tested, 0.02% active; active means potentiation above 80%; inconclusive means 30% to 80%; inactive means below 30%; also: 0% is about no effect
Target sequence (Q8NER1 whole entry, looked up): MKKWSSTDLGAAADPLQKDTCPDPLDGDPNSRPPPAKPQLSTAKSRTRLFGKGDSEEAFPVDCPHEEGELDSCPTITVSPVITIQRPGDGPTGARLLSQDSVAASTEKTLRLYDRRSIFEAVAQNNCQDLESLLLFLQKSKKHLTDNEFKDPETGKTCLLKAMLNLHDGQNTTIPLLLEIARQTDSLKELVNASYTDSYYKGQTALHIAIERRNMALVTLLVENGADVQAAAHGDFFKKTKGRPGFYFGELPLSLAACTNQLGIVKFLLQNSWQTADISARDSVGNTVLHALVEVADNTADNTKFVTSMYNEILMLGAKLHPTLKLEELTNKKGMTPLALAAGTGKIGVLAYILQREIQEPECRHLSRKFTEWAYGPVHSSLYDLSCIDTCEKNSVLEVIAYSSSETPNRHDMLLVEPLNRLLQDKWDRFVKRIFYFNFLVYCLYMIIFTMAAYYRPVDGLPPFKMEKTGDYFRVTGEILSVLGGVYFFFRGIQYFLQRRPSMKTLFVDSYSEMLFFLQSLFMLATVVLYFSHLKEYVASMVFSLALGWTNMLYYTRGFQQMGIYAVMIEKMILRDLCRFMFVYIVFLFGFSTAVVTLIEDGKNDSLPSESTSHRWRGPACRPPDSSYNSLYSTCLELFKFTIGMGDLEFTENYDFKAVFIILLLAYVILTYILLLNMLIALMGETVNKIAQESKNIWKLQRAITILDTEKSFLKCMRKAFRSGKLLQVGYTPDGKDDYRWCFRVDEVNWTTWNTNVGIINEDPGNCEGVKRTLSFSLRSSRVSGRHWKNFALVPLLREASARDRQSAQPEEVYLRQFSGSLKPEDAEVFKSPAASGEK
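Cells expressing TRPV1 were dye-loaded with Fluo-8 and read kinetically: 10 s baseline, 3 min after compound (agonist portion), then 2 min after EC20 capsaicin (allosteric enhancer portion). Calcium-bound dye fluorescence at 480/520 nm.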
CtBP-E1A blk = blocks the CtBP interaction with E1A | AlphaScreen GST-E1A/His-CtBP binding, 1536-well; stronger effect = lower value; control for the full effect not named in the record | activity change, % (no concentration beside the values) | 340,000 tested, 0.49% active | AID 651724; in the data active means activity change below about -65%; inconclusive means about -30% to -65%; inactive means above about -30%; also: % is scaled to controls: 0 for no effect and ±100 for the full control effect; compound concentration not given in the record
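In 5 uL wells, 23 nL compound meets equimolar GST-E1A and His-CtBP (5X stock 125 nM each) for 2 h, 37 °C. Beads (5X, 50 ug/mL) then 1 h, 37 °C, dark.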
D2 potentiator = positive allosteric modulators of human D2 dopamine receptor; P14416; DiscoveRx D2 beta-arrestin cells, luminescence, 90 min; 100% = 57 uM dopamine signal; potentiation, % (no concentration beside the values); 360,000 tested, 0.23% active; AID 624464; active = potentiation of 50% or more; inconclusive = 30% to 50%; inactive = 30% or less;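 also: compound concentration not given in the record; tested on top of an EC20 dose of dopamine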
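D2 cells co-treated with compound plus 50 nM dopamine (EC20) for 90 min at 37 deg C to detect potentiation. Beta-arrestin recruitment was read as enzyme-fragment luminescence after 1 h at ambient temperature. Full response was set by 57 uM dopamine.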
PINK1 expr mod = PINK1 expression modulation; PINK1 immunofluorescence, high-content cytometry, 24 h; Potency, µM (doses to about 76.6 µM), inactives show top-dose activation (PINK1 increase), usual class: activators; 410,000 tested, 0.2% active; AID 624263; active = well fitted activation curve with a large enough effect; inconclusive = small, poorly fitted or top-dose-only effect; inactive = flat fitted curve, though single readings scatter; cell line not stated here;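 also: potency is read from the fitted curve at half-maximal effect; % of control where 0% means no effect; nearly all actives have a fitted effect of over 65% in size; a mitochondrial uncoupler was the plate control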
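Cells are seeded, rested 12 hours, then given compound at five concentrations or DMSO for 24 hours. After fixation, blocking and antibody staining, PINK1 amount and mitochondrial localization are scored; CCCP serves as control.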
The depositor's hits bear a star; ? = inconclusive; / = no result given; & = joins results of further samples; [ ] = another dose, or the depositor's remark. These rows are one share of the data; rates above refer to the full screens.

Value order – Six1-Eya2 blk | D2 agonist | Sfp inh | TRPV1 potentiator | CtBP-E1A blk | D2 potentiator | PINK1 expr mod
Cc1nn(Cc2c(Cl)cccc2Cl)c(Cl)c1C(=O)O
 : -2 | 0.6 | 19% | 4 | 3 | -9 | 0.0%
CN(C)P(=S)(Nc1ccccc1)C(Cl)(Cl)Cl (configuration not stated)
 : 6 | 2.7 | 11% | 14 | -25 | 5 | ?
O=C1NC(=S)N(c2ccc(Br)cc2)C(=O)/C1=C/N1CCN(C(=O)c2ccco2)CC1
 : -3 | -3.9 | -4% | 1 | / | -39 | -0.8%
O=C(c1ccccc1)c1ccccc1N=Cc1c(O)[nH]c(=O)[nH]c1=O
 : -1 | -3.6 | 7% | -2 | -1 | -4 | -1.3%
O=S(=O)(c1ccccc1)N1Cc2ccccc2-n2nncc2C1
 : 23 | -1.7 | / | / | 1 | 1 | -2.2%
c1ccc(-c2ccc(CN3Cc4ccccc4-n4nncc4C3)cc2)cc1
 : 5 | / | / | / | 0 | 0 | 0.8%
CN(C)C(Cc1ccccc1)C(=O)c1c[nH]c2ccccc12 (configuration not stated)
 : 11 | -4.7 | 5% | 8 | 0 | -31 | 0.0%
CCc1ccccc1NC(=O)CNC1CCCCC1
 : 7 | -5.9 | -1% | 7 | 1 | -1 | 4.5%
CC(N)C(=O)c1ccco1 (configuration not stated)
 : 4 | -5.2 | 20% | -3 | 4 | -32 | -1.9%
C[N+]12CCC(CC1)C(C#N)(N1CCOCC1)C2 (configuration not stated)
 : 4 | -1.4 | 9% | -11 | -3 | -8 | -1.1%
Cn1c(O)c(/C=N/N2CCOCC2)c(=O)n(C)c1=S
 : 4 | -3.5 | 7% | -1 | 6 | -4 | 0.8%
CCCCCCC(C)(C)c1ccc([C@@H]2C[C@H](O)CC[C@H]2CCCO)c(O)c1
 : 7 | -5.4 | / | 10 | -2 | -9 | 0.0%&-0.6%
Cc1ccc(-c2cc(-c3ccc(C)cc3)[n+](-c3ccc(C(=O)[O-])cc3)c(-c3ccc(C)cc3)c2)cc1
 : 0 | -0.1 | / | -18 | -9 | -31 | ?
C/C(CC(=O)Nc1ccccn1)=N\NC(=O)Cc1cccc2ccccc12
 : 4 | 2.4 | 17% | 16 | 5 | -2 | ?
Cc1ccc2c(c1)=C/C(=C\c1c(O)[nH]c(=O)[nH]c1=O)C(=O)N=2
 : -7 | -7.5 | 28µM* | -9 | 16 | -16 | 0.8%
COC(=O)C1=C(c2ccc(Cl)c(C(F)(F)F)c2)C[C@@H]2CC[C@H]1N2C(=O)NC1CC1
 : 0 | -4.5 | / | -16 | 0 | -5 | -0.6%
COc1ccc(C(=O)N2C[C@H]3C[C@@H](C2)c2cccc(=O)n2C3)cc1OC
 : 8 | -5.4 | 13% | -3 | -12 | -25 | -0.1%
Nc1c(C(=O)NCCc2ccccc2)c2nc3ccccc3nc2n1CCN1CCOCC1
 : 16 | -0.6 | ? | -3 | 16 | -5 | 3.4%[38.3 µM]
CCCCc1ccc2[nH]cc(CCN)c2c1
 : -22 | 15 | 0% | 13 | 2 | -13 | /
CCC1(CC)C(=O)NC(=O)N(CCc2ccccn2)C1=O
 : 1 | 4.8 | / | / | 6 | 4 | 8.2%
CCOC(=O)CNC(=O)CSP(=S)(OCC)OCC
 : 1 | 0.2 | 79µM* | 13 | -2 | -16 | /
COc1ccc(CN2C(=O)NC(=O)/C(=C\c3ccco3)C2=O)cc1
 : -20 | -4.5 | 71µM* | ? | -6 | -4 | 10%
O=C(C1CCN(S(=O)(=O)c2ccccc2)CC1)N1CCC2(CC1)OCCO2
 : 6 | -2.8 | 12% | 14 | -2 | -3 | -0.4%
CC(C)(C)C(=O)N1Cc2ccccc2-n2nncc2C1
 : 3 | 0.2 | / | / | 2 | -1 | -1.5%
COC(=O)c1ccccc1NC(=O)N1C[C@@H]2C[C@@H](C1)c1cccc(=O)n1C2
 : 12 | -2.7 | 7% | 2 | 5 | -21 | 0.3%
Cc1ccc(-n2c(O)c(C=Nc3ccc(Br)cn3)c(=O)[nH]c2=O)cc1
 : 3 | 0.7 | 13% | 3 | 3 | 2 | -0.5%
COc1cccc(C2(O)CCN(Cc3ccncc3)CC2)c1
 : 4 | -2.5 | 12% | 15 | 1 | -9 | -1.2%
O=C(Cn1cc(C(=O)c2ccccc2F)c2ccccc21)NC1CC1
 : 1 | -2.4 | 9% | 10 | -1 | -13 | 0.3%
Cc1ccc(N(C)C(=O)Oc2cccc3ccc(C)nc23)cc1
 : 3 | -3.0 | 5% | -3 | -2 | -11 | 1.8%
CCC(=NCCO)c1c(O)n(-c2ccc(Cl)cc2)c(=O)[nH]c1=O
 : 3 | 0.8 | 0% | 3 | 4 | -3 | -2.0%

Continued:
molecule | Six1-Eya2 blk | D2 agonist | Sfp inh | TRPV1 potentiator | CtBP-E1A blk | D2 potentiator | PINK1 expr mod
NC1CC2CCCCC2CC1(O)c1ccccc1 (configuration not stated) | 4 | -4.1 | / | / | -3 | -2 | 0.4%
CCOP(=O)(c1ccccc1)c1nc(-c2ccc(F)cc2)oc1N1CCCCC1 (configuration not stated) | 0 | -3.7 | ? | -6 | -4 | -14 | 3.1%
Cc1cccc(-n2c(-c3ccccc3)nc3ccccc3c2=O)n1 | -6 | -2.4 | 21% | -2 | 1 | -2 | -1.2%
CCC1CN1P1(=O)OCC(C)([N+](=O)[O-])CO1 (configuration not stated) | 16 | 2.9 | / | / | -22 | -11 | -5.7%
Cc1ccc(-c2nn(CCC#N)cc2C(=O)O)cc1C | -1 | 0.4 | 26% | 2 | 8 | -5 | 7.7%
O=c1[nH]c(O)c(Cc2ccc3c(c2)OCO3)c(=O)[nH]1 | 3 | 0.7 | 7% | 9 | 10 | 0 | -1.5%
Cc1ccc(C=C2C(Cl)=C(Cl)C(Cl)=C2Cl)cc1 | -25 | -1.6 | ? | 23 | 0 | -3 | -1.4%
CC(OC(=O)c1cn(C)c2ccccc12)C(=O)N1CCCC1 (configuration not stated) | 11 | -1.8 | / | ? | -9 | 11 | 0.0%
COc1ccc(-c2nn(CCC#N)cc2C(=O)O)cc1 | 11 | 11 | 17% | 1 | 8 | -6 | -1.3%
Cc1ccccc1NC(=O)NCCN1CC1 | -1 | -4.7 | -12% | ? | / | -20 | -1.3%
COc1ccc2c(c1OC)C(=O)OC2c1c(O)n(Cc2ccc(F)cc2)c(=O)[nH]c1=O (configuration not stated) | -7 | -0.2 | 7% | 13 | -11 | 3 | 11%[38.3 µM]
COC(=O)C1=C(c2ccc(-c3ccccc3)c(F)c2)C[C@@H]2CC[C@H]1N2C(=O)NC1Cc2ccccc2C1 | -5 | -7.6 | / | -3 | -9 | -16 | 0.7%
CC1=C(O)C(=O)C=C2C1=CC=C1C2(C)CCC2(C)C3CC(C)(C(=O)O)CCC3(C)CCC12C (configuration not stated) | -7 | -1.3 | / | / | -1 | -7 | -1.7%
Cc1c(C(c2ccc(Br)cc2)c2c(O)c3ccccc3oc2=O)c(=O)n(-c2ccccc2)n1C (configuration not stated) | 21 | -1.0 | 0% | 14 | 0 | -5 | 0.6%&2.7%
CCCCC/C(=N/O)c1c(C)[nH]c2ccccc12 | 2 | 0.0 | 18% | -2 | -2 | 4 | 3.6%
O=C(OCC(=O)c1ccc([N+](=O)[O-])cc1)/C(=C\c1ccc(Cl)cc1)NC(=O)c1ccccc1 | -21 | 4.0 | 11% | -15 | -6 | 22 | /
Cn1c(O)c(C(=Nc2ccc(F)cc2)c2ccccc2Cl)c(=O)n(C)c1=O | 11 | -3.0 | -1% | 20 | -3 | -4 | 0.8%
COC(=O)C1=C(c2ccc(OCc3ccccc3)cc2)C[C@@H]2CC[C@H]1N2C(=O)NCc1ccccc1 | -3 | -0.1 | / | -8 | -1 | -12 | 0.6%
CCN(CC)CCCN=Cc1c(O)n(-c2ccccc2F)c(=O)[nH]c1=O | 1 | -4.9 | 10% | -12 | 1 | -11 | 2.0%
COC(=O)C(NC(=S)N1CC2C[C@@H](C1)Cn1c2cccc1=O)C(C)C (some centres not stated) | 3 | 0.9 | 4% | 28 | 13 | -1 | 2.0%
O=c1[nH]c(=O)n(C2CCCCC2)c(O)c1C=Nc1ccc(N2CCOCC2)cc1 | -2 | 5.4 | 10% | 5 | -1 | 6 | 8.4%
CC(=O)OC1(c2ccccc2)CCN(C2CCCCC2)CC1C (configuration not stated) | 4 | 7.9 | 19% | 0 | 10 | -3 | 1.3%
O=c1ccc2cc(O[C@@H]3O[C@H](CO)[C@@H](O)[C@H](O)[C@H]3O)c(O)cc2o1 | -1 | -2.9 | / | / | 5 | 4 | 5.0%
CCCCC(=O)N/N=C/c1c(O)n(Cc2ccco2)c(=O)[nH]c1=O | -75* | 11 | -24% | -10 | ? | 14 | -0.7%
Cc1ccc(N2C(=O)CC(=O)NC2=O)c(C)c1 | 7 | -0.1 | -12% | 7 | / | -10 | 0.8%
COc1ccc(CN2C(=O)NC(=O)/C(=C\c3cccc(OC)c3OC)C2=O)cc1 | 8 | -4.2 | 79µM* | 3 | -2 | -8 | 0.8%
Fc1ccc(CNC2CN3CCC2CC3)cc1 (configuration not stated) | -1 | 1.2 | -8% | 5 | / | -7 | 0.7%
c1ccc(N2C3C4CC(C5CCCC54)C32)cc1 (configuration not stated) | 4 | 2.8 | / | / | 14 | -1 | 16%
N#CCCn1cc(C(=O)Nc2ccccc2Cl)c(-c2ccc(F)cc2)n1 | -5 | 2.1 | -1% | 2 | 6 | -2 | -1.0%
CC12CCC3C(CCC4CC(=O)CCC43C)C1CC(=NO)C2=O (configuration not stated) | 5 | -1.1 | / | / | -12 | -13 | -1.5%
CCN1CCC2(CC1)NC(CO)(CO)CO2 | 12 | -3.5 | 14% | 3 | 7 | 29 | 1.9%
COc1ccc(Cc2c(O)[nH]c(=S)[nH]c2=O)cc1 | 3 | 2.9 | 56µM* | 2 | -19 | 1 | 2.3%

Grouped by structure, the compounds so far with bromine.
molecule | Six1-Eya2 blk | D2 agonist | Sfp inh | TRPV1 potentiator | CtBP-E1A blk | D2 potentiator | PINK1 expr mod
O=C1NC(=S)N(c2ccc(Br)cc2)C(=O)/C1=C/N1CCN(C(=O)c2ccco2)CC1 | -3 | -3.9 | -4% | 1 | / | -39 | -0.8%
Cc1ccc(-n2c(O)c(C=Nc3ccc(Br)cn3)c(=O)[nH]c2=O)cc1 | 3 | 0.7 | 13% | 3 | 3 | 2 | -0.5%
Cc1c(C(c2ccc(Br)cc2)c2c(O)c3ccccc3oc2=O)c(=O)n(-c2ccccc2)n1C (configuration not stated) | 21 | -1.0 | 0% | 14 | 0 | -5 | 0.6%&2.7%

Source: PubChem
